quorum sensing = Vibrio cholerae quorum sensing activators, luminescence (AID 686977); V. cholerae quorum sensing reporter, luminescence, 6 h; higher luminescence means a stronger effect; most inactives read 0; 9,400 tested, under 10 active; one-dose luminescence at 50 µM unless noted; EC50 in µM for titrated hits;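 active means light above mean plus 3 SD and confirmed in a dose series; inconclusive means above that limit without a clear retest; inactive means below it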;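 further: raw light counts without normalisation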
An asterisk follows results filed as active; ? = inconclusive; [ ] = another dose, or the depositor's remark. A portion of the library; rates above refer to the full screens.

SMILES	quorum sensing
COc1ccc(C2=NN(C(=O)CSc3cn(C)c4ccccc34)C(c3ccc(OC)cc3)C2)cc1 (stereo unspecified)	40
O=c1c2ccccc2cnn1-c1ccc2ccccc2c1	0
CCCCCn1c(=NC(=O)c2ccco2)c(C(=O)OCC)cc2c(=O)n3ccccc3nc21	0
C=CCSc1nc2ccccc2n1C(=O)/C=C/c1ccc(OC)c(OC)c1	0
CSc1nc2ccc(S(=O)(=O)N3CCCC3)cc2s1	40
CCOC(=O)CN1CC23C=CC(O2)C(C(=O)NCc2ccc(C)cc2)C3C1=O (stereo unspecified)	0
CN(C)c1ccc(NC(=O)CSc2nnc(-c3cccs3)n2Cc2ccco2)cc1	40
CCSc1nnc(NC(=O)CSc2nc(CC)nc3c2c(=O)n(C)c(=O)n3C)s1	0
Cc1cc(NC(=O)c2cn(C3CCCCC3)c(=O)c3c2c2ccccc2n3C)no1	0
CC(=O)OC1COC(N2CCc3cc(Br)c([N+](=O)[O-])cc32)C(OC(C)=O)C1OC(C)=O (stereo unspecified)	40
CCOC(=O)C1CCN(CCC(=O)Nc2cccc(Cl)c2C)CC1	0
COc1cc(C(=O)N2CCN(c3cc(Cl)ccc3Cl)CC2)cc(OC)c1OC	40
O=C(Nc1nnc(-c2ccc3c(c2)CCCC3)o1)c1ccccc1	0
O=[N+]([O-])c1cc([As](=O)(O)O)ccc1O	200[10 µg/mL]
CCCC/C(O)=C1\C(=O)CC(C)(C)CC1=Nc1ccccc1OC	?
CCOC(=O)C(NC(=O)CC)C(O)c1cccc([N+](=O)[O-])c1 (stereo unspecified)	40
Cc1ccc(C#N)c(SCc2cc3c(cc2Cl)OCO3)n1	0
Nc1ccccc1S(N)(=O)=O	0[10 µg/mL]
COc1ccc2cc(CCNC(=O)C(C)(C)C)c(=O)[nH]c2c1	0
Cc1ccc(Cl)cc1N1CCN(C(c2ccc(C#N)cc2)c2nnnn2C2CCCC2)CC1 (stereo unspecified)	0
NC(=O)c1c(NC(=O)CSc2nc3c(c(C(F)(F)F)n2)CCc2ccccc2-3)sc2c1CCCC2	0
CCOC(=O)N1CCC(NC(=O)c2cc3ccccn3n2)CC1	0
Cc1nc(-c2coc3cc(O)c(C)cc3c2=O)cs1	0
CN(Cc1ccccc1)Cc1ccccc1OC(=O)N(C)C	0
O=c1[nH]c(CN2CCN(c3ccc([N+](=O)[O-])cc3)CC2)nc2ccsc12	0

The list continues:
SMILES	quorum sensing
COC(=O)c1ccc(S(=O)(=O)NCCSc2nnc3c4ccccc4n(C)c3n2)cc1	0
O=C(NCc1ccncc1)c1cccc(F)c1	0
Cc1ccc(-c2nc(CSCC(=O)N3CCN(C(=O)c4ccco4)CC3)c(C)o2)cc1	?
O=C(NC1CCCCC1)C1CC(=O)N(c2ccc(Cl)cc2)C1 (stereo unspecified)	40
O=C(NCCn1ccc2ccccc21)C1CCCCC1	0
Cc1ccc(NC(=O)CN(C)Cc2nc3ccccc3c(=O)[nH]2)c(Br)c1	?
CC(Sc1nnc(NC(=O)c2cc3ccccc3oc2=O)s1)c1ccccc1 (stereo unspecified)	0
O=C(O)CC1C(=O)NCCN1Cc1ccc(F)c(F)c1 (stereo unspecified)	?
NC(=O)CSc1nnc(-c2cnccn2)n1-c1ccccc1	0
CN1[C@@H]2CC(=O)C[C@H]1[C@H](O)C2	0[10 µg/mL]
COc1ccc(CCNC(=O)c2[nH]c(C)c(C(C)=O)c2C)cc1	40
CCC(=O)Nc1cc(-c2nnc(OC)c3ccccc23)ccc1N1CCOCC1	120
Cc1cc(Nc2ccccc2)c2c([N+](=O)[O-])c(C)cc(C)c2n1	40
COCCOC(=O)C1=C(C)N(Cc2ccccc2)C(=O)NC1c1cccc(OC)c1OC (stereo unspecified)	?
O=C(Nc1cccc(C(F)(F)F)c1)C1CCCCC1	?
COc1ccc(S(=O)(=O)NCCc2cn3cccc(C)c3n2)cc1OC	0
CSc1nc(-c2ccco2)nn1C(=O)c1ccc(C)cc1	0
CCCC(=O)Nc1nc2nc(C)cc(=O)n2[nH]1	0
CCOc1ccccc1NC(=O)CN(c1cc(C)cc(C)c1)S(=O)(=O)c1c(C)noc1C	0
CCc1ccccc1NC(=O)c1cnc2n(c1=O)CCS2	40
O=C(O)COc1ccc2occ(C(=O)c3ccccc3)c2c1	0
O=C(CN1CCN(Cc2cccc(Cl)c2)C1=O)NCc1ccccn1	0
COc1ccccc1CNC(=O)C1CCCN1S(=O)(=O)c1cccc2cccnc12 (stereo unspecified)	40
COCCn1c(C)cc(C(=O)CSc2nnc3ccccn23)c1C	0
CCCCC(=O)Nc1ccc2c(c1)C(=O)NC2=O	40

Continuation.
SMILES	quorum sensing
Nc1ccc(C(=O)NCC(=O)O)cc1	40[10 µg/mL]
CC(=O)N(C(C)=O)c1ncc2c([nH]c3ccccc32)c1C#N	0
OCCOCCOCCn1c2ccccc2c2ccccc21	0
CC(=O)NCCc1cc2ccc(C)c(C)c2[nH]c1=O	0
COc1ccc(Oc2nccc(-c3ccccc3)c2C#N)cc1	0
CCOc1ccc(NC(=O)N(CCCN2CCOCC2)Cc2cccnc2)cc1	0
O=C(CCCN1C(=O)c2ccccc2C1=O)N1CCC(c2ccccc2)C1 (stereo unspecified)	40
CCN1CCN(S(=O)(=O)c2cccc3nsnc23)CC1	40
CCOC(=O)Cn1c2c(c(=N)c3ccccc31)CCC2	0
CCCCS(=O)Cc1ccccc1 (stereo unspecified)	320
OCCN1CCN(C(=S)c2ccc(Br)cc2)CC1	0
CC1=C(/C=C/C(C)=C/C=C/C(C)=C\C(=O)O)C(C)(C)CCC1	40[10 µg/mL]
N#Cc1cc(Oc2cccnc2)c(Oc2cccnc2)cc1C#N	40
COc1cc2c(cc1OC)C(C)NCC2 (stereo unspecified)	40[10 µg/mL]
Cc1ccc(C(=O)COC(=O)CNC(=O)C(c2ccccc2)c2ccccc2)cc1[N+](=O)[O-]	40
Cc1ccc(S(=O)(=O)NCCN=C(CN2CCCC2)NS(=O)(=O)c2ccc(C)cc2)cc1	240
O=C(CC(c1ccccc1)c1ccccc1O)N1CCCC1 (stereo unspecified)	0
Cc1cc(C)cc(N2CC(c3nc4ccccc4n3C)CC2=O)c1 (stereo unspecified)	40
C[C@H](NCCc1ccc(O)cc1)[C@H](O)c1ccc(O)cc1	40[10 µg/mL]
Cn1c(C(=O)N2CCCC(C(=O)N3CCN(C(=O)c4ccco4)CC3)C2)cc2sccc21 (stereo unspecified)	0
O=C(NNC1=NCCC1)c1cccc(Br)c1	0
COc1c(C)cc(S(=O)(=O)N2CCCC2)c(C)c1C	0
CC(O)Cn1cnc2c1c(=O)n(C)c(=O)n2C (stereo unspecified)	?
COCCNC(=O)CN1C(=O)CC(C)(C)S(=O)(=O)c2ccccc21	0
O=C1NC(c2ccncc2)Nc2ccccc21 (stereo unspecified)	0

Next entries follow:
SMILES	quorum sensing
Cc1ccccc1-c1nc(CS(=O)(=O)CC(=O)N2CCc3ccccc3C2)c(C)o1	0
CC1Cn2c(nnc2-c2ccccc2O)S1 (stereo unspecified)	40
O=C(CCN1C(=O)c2ccccc2C1=O)Nc1ccccc1C(=O)N1CCOCC1	40
Cc1cc(C(=O)Nc2nc3c(C)cccc3s2)c(C)o1	200
COC(=O)CC(N)c1ccc(OC)c2ccccc12 (stereo unspecified)	0
COc1ccc(CNC(=O)COC(=O)c2cc(-c3cccs3)nc3ccccc23)cc1OC	40
O=C1NC(=S)NC(=O)C12C(c1ccc(F)cc1)NC(=S)NC2c1ccc(F)cc1 (stereo unspecified)	0
CCCCC(=O)Nc1nc2ccc3nc(C)sc3c2s1	0
Cc1noc(C)c1S(=O)(=O)N1CCN(C(c2ccccc2)c2ccc(Cl)cc2)CC1 (stereo unspecified)	40
COc1cccc(Cn2cccc(NC(=O)NC3CCCCC3)c2=O)c1	40
CCOC(=O)c1ccccc1NC(=O)c1cc(S(=O)(=O)N2CCOCC2)ccc1F	0
O=C(Nc1ccccc1Cl)C1CCCN(S(=O)(=O)c2ccc(F)cc2)C1 (stereo unspecified)	40
CC(C)CC(NC(=O)C(CC(C)C)NC(=O)OC(C)(C)C)C(=O)O (stereo unspecified)	0
CCOC(=O)C1CCN(C(=O)COc2ccc(S(=O)(=O)NC(C)C)cc2Cl)CC1	0
Cc1nn(-c2ccccc2)c(C)c1/C=N\N1CCN(c2ccc(Cl)cc2)CC1	?
O=C(Nc1ccc(S(=O)(=O)NCc2ccco2)cc1)c1ccncc1	0
CCOC(=O)N1CCN(C(=O)c2oc(=O)c3ccccc3c2-c2ccc(C)cc2)CC1	0
Cc1noc(C)c1S(=O)(=O)N(CC(=O)Nc1ccc2c(c1)OCO2)c1ccc(C(C)C)cc1	40
CCC(C)NC(=O)C1CCN(S(=O)(=O)c2ccc(OC)cc2)CC1 (stereo unspecified)	40
COc1ccc(OC)c(N(CC(=O)Nc2cccnc2)S(C)(=O)=O)c1	40
Cn1cc[nH]c1=S	40[10 µg/mL]
CCN(CC)C(=O)C1CCC(CNS(=O)(=O)c2cccc3cccnc23)CC1 (stereo unspecified)	0
CC(C)(C)n1nnnc1C(c1cccs1)N(Cc1ccccc1)Cc1ccco1 (stereo unspecified)	40
O=C(c1ccccc1)c1ccc2nc(N3CCN(C(=O)c4ccco4)CC3)c3nncn3c2c1	40
Cc1cc(C)c(C#N)c(SCC(=O)Nc2ccc(S(=O)(=O)Nc3onc(C)c3C)cc2)n1	0

Ordered by number of heavy atoms (rising): part of the list above
SMILES	quorum sensing
Cn1cc[nH]c1=S	40[10 µg/mL]
CC1Cn2c(nnc2-c2ccccc2O)S1 (stereo unspecified)	40
COC(=O)CC(N)c1ccc(OC)c2ccccc12 (stereo unspecified)	0
CCCCC(=O)Nc1nc2ccc3nc(C)sc3c2s1	0
CC(C)CC(NC(=O)C(CC(C)C)NC(=O)OC(C)(C)C)C(=O)O (stereo unspecified)	0
COc1ccc(OC)c(N(CC(=O)Nc2cccnc2)S(C)(=O)=O)c1	40
COc1cccc(Cn2cccc(NC(=O)NC3CCCCC3)c2=O)c1	40
CCN(CC)C(=O)C1CCC(CNS(=O)(=O)c2cccc3cccnc23)CC1 (stereo unspecified)	0
CCOC(=O)C1CCN(C(=O)COc2ccc(S(=O)(=O)NC(C)C)cc2Cl)CC1	0
Cc1ccccc1-c1nc(CS(=O)(=O)CC(=O)N2CCc3ccccc3C2)c(C)o1	0
CCOC(=O)N1CCN(C(=O)c2oc(=O)c3ccccc3c2-c2ccc(C)cc2)CC1	0
Cc1cc(C)c(C#N)c(SCC(=O)Nc2ccc(S(=O)(=O)Nc3onc(C)c3C)cc2)n1	0
COc1ccc(CNC(=O)COC(=O)c2cc(-c3cccs3)nc3ccccc23)cc1OC	40
O=C(c1ccccc1)c1ccc2nc(N3CCN(C(=O)c4ccco4)CC3)c3nncn3c2c1	40

(listing goes on)
SMILES	quorum sensing
COCC(C)n1c(C)cc(C(=O)CSc2ccc(NC(C)=O)cc2)c1C (stereo unspecified)	0
COc1cccc(NC(=O)CSc2nc(C)cs2)c1	0
O=C(NCCn1ccc2ccccc21)c1ccc(S(=O)(=O)N2CCCCC2)cc1	?
CCC(=O)NCCCCCCNC(=O)CC	40
O=C1C=C(Nc2cccc(Cl)c2)CC(c2ccco2)C1 (stereo unspecified)	0
O=C(c1cc(-c2ccc(O)cc2)on1)N1CCc2ccccc2C1	0
CC1Cc2nc(SCC(=O)N3CCN(c4ccccc4)CC3)n(CCc3ccccc3)c(=O)c2S1 (stereo unspecified)	0
Cc1cc(NC(c2cccnc2)c2c(C)[nH]c3ccccc23)no1 (stereo unspecified)	40
Cn1c(C(=O)NCCN2CCCCCC2)cc2c(=O)n(C)c3ccccc3c21	0
CCCC1S/C(=N/N=C/c2ccc(OC)cc2)N(Cc2ccccc2)C1=O (stereo unspecified)	40
C/C=C(/C(=C/C)c1ccc(O)cc1)c1ccc(O)cc1	0[10 µg/mL]
COc1cc2ccccc2cc1C(=O)O	200
CC(/C=C1\N=C(SCc2ccccc2Cl)SC1=O)=C\c1ccccc1	0
COc1ccc(NC(=O)Nc2cc(C)ccc2F)cc1	0
CCC(C)NC(=O)C1CCC(=O)N(c2ccc3c(c2)OCO3)C1c1ccc(OC)cc1 (stereo unspecified)	?
CN(CCNC(=O)c1cn(C)c2ccc(S(=O)(=O)N(C)C)cc2c1=O)CCc1ccccc1	0
COc1ccccc1C(=O)n1nc(C)cc1C	40
Cc1nn(C)c(C)c1S(=O)(=O)N1CCC(C(=O)NC2CCCc3ccccc32)CC1 (stereo unspecified)	160
CCCc1nc2ccccc2n1CCOc1ccccc1	0
Cn1c2c(c(=O)n(C)c1=O)CN(Cc1ccc(F)cc1)CN2	0
Cc1ccnc(NS(=O)(=O)c2ccc(NC(=O)C34CC5CC(CC(C5)C3)C4)cc2)n1	?
C=CCn1c(=O)n(CCOC)c(=O)c2sc3ccccc3c21	320
COc1ccccc1NC(=O)CSc1nnnn1C	40
COc1ccc(C2NC(C(=O)O)Cc3c2[nH]c2ccccc32)cc1OC (stereo unspecified)	0
COc1cccc(C(=O)Cn2c(N3CCCCC3)nc3c2c(=O)n(C)c(=O)n3C)c1	?

(cont.)
SMILES	quorum sensing
Cn1c(NC(=O)c2ccccc2Br)cc(=O)n(C)c1=O	40
Cc1nc2nc(-c3cccnc3)nn2c(C)c1Cl	0
O=C(Nc1cccc(F)c1)c1c(F)c(F)c(F)c(F)c1F	40
CC(C)Oc1cc2oc(=O)c3c(c2cc1Cl)CCC3	40
Cc1cccc(Nc2ncccc2C(=O)NCc2cccs2)c1C	40
O=C(NC1CCCCC1)C1CCN(S(=O)(=O)c2cccc3cccnc23)CC1	0
O=C(OC(C(=O)NCC1CCCO1)c1ccccc1F)c1ccco1 (stereo unspecified)	40
COc1ccccc1/C=C/C(=O)NCC(=O)N/N=C/c1cc(Br)ccc1OC	0
CCOC(=O)c1c(C)oc2ccc(NS(=O)(=O)c3ccc4c5c(cccc35)C(=O)N4)cc12	0
Cc1cc(C)cc(NC(=O)CSc2nc3ccncc3[nH]2)c1	0
